Assay outcomes (PubChem BioAssay)
PrP UTR inh: inhibition of PrP 5' UTR reporter expression | inhibition, % (no concentration beside the values) | AID 488862 | 340,000 tested, 0.35% active | cell-based PrP 5' UTR mRNA reporter, plate reader;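 active means every replicate at 50% or more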;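 further: 0 = median of the neutral control wells; tested in H4 reporter cells; numbers are from one replicate; inactives centre near -14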
BJeLR lethal: kills HRASV12-expressing BJeLR cells. BJeLR (HRASV12) viability, CellTiter-Glo ATP luminescence, 48 h; reference of the scale not given here. inhibition, % (test concentration not listed). 300,000 tested, 0.17% active. AID 1554;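 active means replicate mean above 50%; inconclusive means above 50% but judged a plate artefact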;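 further: 50 nL library stock added to about 25 µL; numbers are from one replicate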
Mtb hypoxia rep: inhibitors of hypoxia-regulated fluorescent reporter in Mycobacterium tuberculosis | 300,000 tested, 0.1% active | M. tuberculosis hypoxia-regulated fluorescent reporter, fluorescence | fluorescence inhibition, % (test concentration not listed) | AID 1159583;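 active means 35 to 45% if threefold the growth effect, above 45% if 1.5-fold the growth effect; inactive means the rest, general growth blockers included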;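 further: wells of about 50 µL received 100 nL stock; 0% = vehicle wells and 100% = reference inhibitor wells; whole bacteria with a GFP reporter of the hypoxia response; strong numbers were not always called active; many hits fall short of the cut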
ugtP null kill: growth inhibition of S. aureus ugtP deletion strain; growth inhibition, % (no concentration beside the values); AID 1259309; 330,000 tested, 0.54% active; S. aureus RN4220 ugtP deletion, OD600 growth, 16 h; some inactives read as strong as hits;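 active means z-score under -3 and OD600 up to 0.15 on both plates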;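 further: plate controls were untreated wells for no effect and antibiotic for full effect; wells of about 80 µL received 100 nL stock; the first replicate is given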
Autofluor counter: flagged as autofluorescent in microsphere protease counterscreen | compound autofluorescence counterscreen, microsphere flow cytometry; active compounds read high | fluorescence intensity (test concentration not listed) | 360,000 tested, 3.1% active;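 active means at least 3 SD above the mean of all compounds, about 16000 in these data; inconclusive means too few beads counted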;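 further: 100 nL of 1 mM stock went into each well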
Sa RN4220 lethal: S. aureus RN4220 growth inhibition; OD600, 16 h; inhibition, % (test concentration not listed); 330,000 tested, 0.33% active;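 active means z-score of -3 or lower and OD600 up to 0.18 on both plates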;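 further: plate controls were untreated cells for no effect and reference antibiotic for full effect; stock transfer was 100 nL into about 80 µL; one replicate is shown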
Mtb hypoxia rep growth: recorded beside Mtb hypoxia rep, whose call it bears; growth inhibition, %; measured here: M. tuberculosis growth (absorbance);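 0% = vehicle and 100% = reference antibiotic; read after six days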
An asterisk follows results filed as active; u = inconclusive; x = no result given. Outcome played no part in choosing rows; about 4.1% have a hit in one of these screens.

SMILES | PrP UTR inh | BJeLR lethal | Mtb hypoxia rep | Mtb hypoxia rep growth | ugtP null kill | Autofluor counter | Sa RN4220 lethal
COC(=O)C(C(=O)OC)C(c1ccccc1)C(C(=O)c1ccccc1)[N+](=O)[O-] (configuration not stated) | -17 | -6 | 8 | 4 | 6 | 5673 | 4.8
COc1ccc(-c2nc(NC(=O)C3=NN(c4cccc(C)c4)C(=O)CC3)sc2C)cc1 | -21 | 1 | 4 | 1 | -12 | 4947 | 4.8
Nc1ccc(C(=O)NN=C2CN3CCC2CC3)cc1 | x | x | 16 | 1 | 7 | x | 4.9
O=C(CCC1CCCN(C(=O)c2ccco2)C1)NCc1ccccc1F (configuration not stated) | -1 | 5 | 9 | 0 | 2 | 4381 | 0.8
Cc1ccc(OCCN2C(=O)S/C(=C\c3ccc(C)o3)C2=O)cc1 | -17 | 5 | 13 | 5 | 0 | 3711 | -0.9
O=C(CSc1nc2sc3c(c2c(=O)n1-c1ccccc1)CCCC3)NCc1ccco1 | -1 | 16 | 9 | 3 | -4 | 4174 | 6.2
CCOc1ccc2nc(SCC)[nH]c2c1 | -22 | 7 | 7 | 1 | 4 | 3834 | 8.6
Cc1cc(C)n(-c2nc3ccccc3nc2NCCc2ccccc2)n1 | -18 | 0 | 1 | -4 | 4 | 5044 | 1.5
COc1cccc(/C=N/Nc2ncnc3c2ncn3Cc2ccccc2)c1O | 35 | 1 | x | x | x | 2459 | x
CCOC(=O)N1CCN(Cc2nnc(-c3ccccc3Cl)o2)CC1 | -21 | -7 | 3 | 6 | 5 | 3003 | 5.7
CC(=O)N1CN(C2CCCC2)Cc2c1sc1c2CCCC1 | -10 | 3 | 6 | 6 | 9 | 4135 | 3.5
COc1ccc(NC(=O)CCc2c(C)nn(-c3ccc(N4CCOCC4)nn3)c2C)cc1 | -16 | 4 | -2 | -3 | 5 | 3967 | -4.2
COCC(=O)N(Cc1nc2sc(C)c(C)c2c(=O)[nH]1)C1CCCCC1 | -11 | 16 | 3 | -4 | 4 | 4690 | 8.7
O=C(CCn1c(=O)oc2ccccc21)N1CCN(c2ccc(F)cc2)CC1 | 3 | 0 | -4 | 4 | -3 | 6176 | -4.2
O=C(NCCO)c1ccc(Cl)c(Cl)c1 | -8 | 4 | x | x | 6 | 4898 | -0.4
COc1ccc(C)cc1NC(=O)COC(=O)C1CC1 | -15 | -6 | 16 | 19 | -2 | 10080 | 8.3
CC1OC(Oc2c(-c3ccc(O)c(O)c3)oc3cc(O)cc(O)c3c2=O)C(O)C(O)C1O (configuration not stated) | x | x | 7 | 0 | 4 | x | 10.0
CCCn1c(=O)[nH]c(=O)c2c1nc(-c1ccc(C(F)(F)F)cc1)n2CCOC | -5 | -15 | -13 | -4 | 16 | 3024 | 6.9
CC1CCN(c2nc3ccc(C(=O)O)cc3s2)CC1 | 51 | 8 | 23 | 17 | 9 | 2625 | -12
CCCOC(=O)C1C2C=CC(C3CC23)C1C(=O)OCC(=O)c1ccccc1 (configuration not stated) | -11 | -1 | 10 | 8 | 11 | 4248 | 3.1

Quoted at random: 7 compounds from above, in no set order.
SMILES | PrP UTR inh | BJeLR lethal | Mtb hypoxia rep | Mtb hypoxia rep growth | ugtP null kill | Autofluor counter | Sa RN4220 lethal
CC1CCN(c2nc3ccc(C(=O)O)cc3s2)CC1 | 51 | 8 | 23 | 17 | 9 | 2625 | -12
O=C(CSc1nc2sc3c(c2c(=O)n1-c1ccccc1)CCCC3)NCc1ccco1 | -1 | 16 | 9 | 3 | -4 | 4174 | 6.2
CCCn1c(=O)[nH]c(=O)c2c1nc(-c1ccc(C(F)(F)F)cc1)n2CCOC | -5 | -15 | -13 | -4 | 16 | 3024 | 6.9
Cc1ccc(OCCN2C(=O)S/C(=C\c3ccc(C)o3)C2=O)cc1 | -17 | 5 | 13 | 5 | 0 | 3711 | -0.9
Cc1cc(C)n(-c2nc3ccccc3nc2NCCc2ccccc2)n1 | -18 | 0 | 1 | -4 | 4 | 5044 | 1.5
CC(=O)N1CN(C2CCCC2)Cc2c1sc1c2CCCC1 | -10 | 3 | 6 | 6 | 9 | 4135 | 3.5
CCOc1ccc2nc(SCC)[nH]c2c1 | -22 | 7 | 7 | 1 | 4 | 3834 | 8.6

More results
SMILES | PrP UTR inh | BJeLR lethal | Mtb hypoxia rep | Mtb hypoxia rep growth | ugtP null kill | Autofluor counter | Sa RN4220 lethal
O=C(Nc1cccc(F)c1)C1CCCCC1 | -11 | x | 4 | 10 | -3 | 4183 | 0.3
Cc1nc2ccccc2n1CC(=O)N/N=C/c1cccs1 | -30 | 2 | x | x | x | 2585 | x
CC(=O)c1cccc(NC(=S)N2CCN(S(=O)(=O)c3ccc(F)cc3)CC2)c1 | -10 | 2 | x | x | x | 5619 | x
CSCCC(NS(=O)(=O)c1ccc(Cl)cc1)C(=O)OCC(=O)NC1CC1 (configuration not stated) | -8 | 4 | 5 | 12 | 3 | 4794 | 1.8
Cc1ccc(CN2CC(C(=O)N3CCN(S(=O)(=O)c4ccc(C)cc4C)CC3)CC2=O)cc1 (configuration not stated) | -18 | x | 8 | 9 | -5 | 6627 | -0.7
COc1cc(/C=N/NC(=O)Cn2c([N+](=O)[O-])cnc2C)ccc1OC(=O)N(C)C | -12 | 5 | x | x | x | 8399 | x
C=CCc1cc(/C=C2/NC(=O)NC2=O)cc(OCC)c1O | 2 | -2 | 1 | -1 | 3 | 2477 | 4.7
NC(=O)NCc1cccc(Cl)c1 | -29 | 18 | 1 | 6 | -9 | 8254 | -0.2
O=C1NC(=S)N(c2ccc(F)cc2)C(=O)/C1=C\c1ccoc1 | -15 | x | -13 | -13 | 15 | 3639 | -2.5
CCC(CC)N1CCN(CC2CC=CCC2)CC1 (configuration not stated) | -19 | -2 | -2 | 5 | 5 | 2493 | 2.6
CCCC(C(=O)OCCN(CC)CC)(c1ccccc1)c1ccccc1 | -8 | 8 | 3 | 3 | -4 | 5655 | 5.1
NC(=O)/C(=C/c1cccnc1)NC(=O)c1ccccc1 | -12 | 11 | 5 | 5 | 10 | 3067 | 3.8
COc1ccc(CCCc2nnc(SCC(=O)Nc3nc(C)cs3)n2C)cc1C | -30 | -3 | 9 | 1 | 7 | 6825 | 4.2
CCOC(=O)c1cc(C(O)(C(=O)OC)C(F)(F)F)c(N=CN(C)C)o1 (configuration not stated) | x | x | 5 | 10 | 12 | x | 3.2
CC(C)(C)c1ccc(OCC(O)CN2CCN(c3ccccn3)CC2)cc1 (configuration not stated) | -12 | 0 | 15 | 9 | 7 | 4323 | 2.3
CCOC(=O)c1ccc(Nc2ncnc3c2cnn3C)cc1 | -17 | -5 | 1 | 0 | -3 | 7911 | 0.9
COc1cccc(OC)c1OCCCCn1cnc2ccccc2c1=O | -8 | -9 | 9 | 3 | 0 | 4210 | 6.2
COc1ccc(-c2nc(-c3cccc(C)c3)no2)cc1OC | -57 | 9 | 7 | 9 | 2 | 7951 | 5.0
C/C(=N\Nc1cccc(C(=O)O)c1)c1ccc(Cl)s1 | -35 | -5 | x | x | x | 4156 | x
O=c1cc(N2CCCCC2)c2ccccc2o1 | -12 | 2 | 7 | 5 | 10 | 5481 | 5.4
Cc1nc2c(c3c1[nH]c1ccccc13)C(O)CC(C)(C)C2 (configuration not stated) | -2 | 1 | -3 | 4 | -2 | 2183 | 5.5
O=C(Cn1c(=O)oc2ccccc21)Nc1ccccc1Cl | -25 | -8 | -7 | 4 | 14 | 4078 | 5.2
CC(=O)Nc1ccc(C(=O)Nc2cccc(S(=O)(=O)NC3=NCCC3)c2)cc1 | -6 | -7 | 7 | 13 | 1 | x | 2.2
COC(=O)c1cc(S(=O)(=O)NCc2ccc3c(c2)OCO3)c[nH]1 | -21 | -3 | 10 | 2 | 18 | 4305 | 3.7
CN(Cc1ccccc1)S(=O)(=O)c1ccc(OCC(=O)NCc2cccnc2)cc1 | -11 | 1 | -5 | 13 | -1 | 3865 | 0.0
CCc1nc(SCC(=O)N2CCN(c3ccccc3)CC2)c2oc3ccccc3c2n1 | -6 | 6 | 14 | 10 | -8 | 17485* | 11
Cc1ccc(S(=O)(=O)N2CCC(C(=O)Nc3ccc(N4CCOCC4)cc3)CC2)cc1C | -10 | x | -4 | 2 | 4 | 5464 | 1.0
CNc1ccc(Br)cc(C(=O)/C=C/c2cccc(Cl)c2Cl)c1=O | -20 | x | 20 | 12 | 0 | 4303 | 4.6
c1ccc(-n2ncc3c(NCc4ccc5c(c4)OCO5)ncnc32)cc1 | -9 | 0 | 3 | -3 | -1 | 8206 | -10
CC(=O)c1c(C)[nH]c(C(=O)COC(=O)CCNS(=O)(=O)c2ccc(C)c(C)c2)c1C | 0 | x | 8 | 1 | 7 | 3237 | 5.1
Cc1ccc(/C=N/NC(=O)c2cc3ccccc3cc2O)o1 | -14 | 1 | x | x | x | 4635 | x
CCCNC(=O)COc1coc(CN2CCN(Cc3ccccc3)CC2)cc1=O | -4 | 6 | 6 | 6 | 1 | 5684 | -0.6
CC1CC(C)CN(S(=O)(=O)c2cccc3nsnc23)C1 (configuration not stated) | -4 | 6 | 16 | 1 | 18 | 4237 | 9.0
CCCOn1c(-n2nc(C)cc2C)nc2ccccc2c1=O | -6 | -2 | 5 | 6 | -3 | 23460* | 3.0
Cc1onc(-c2ccccc2Cl)c1C(=O)NCc1ccc(S(N)(=O)=O)cc1 | -11 | 2 | x | x | -4 | 4778 | 0.0
CC(C)[C@H](NC(=O)c1c(F)cccc1F)C(=O)N1CCN(c2ccc(F)cc2)CC1 | 2 | -11 | -6 | 6 | 3 | 3877 | 4.0
Cc1cc(C(=O)Nc2cccc(NC(=O)c3ccco3)c2)ccc1[N+](=O)[O-] | -28 | x | -6 | 3 | 3 | 4845 | 8.1
Cc1cc(C)nc(-n2nc(C)cc2NC(=O)CN2CCCC(C)C2)n1 (configuration not stated) | 18 | -5 | -2 | 6 | -2 | 8696 | -3.8
COc1cc(C(=O)O)cc(OC)c1OCc1cc(C(=O)O)oc1C | 4 | -1 | 3 | 2 | -2 | 3311 | 4.3
c1ccc(OCCSc2ncnc3nc[nH]c23)cc1 | -52 | 8 | -5 | 2 | 4 | 7276 | -0.1
C#CCOCCOCCOCCNc1nc(N2CCN(C(=O)C(CCCCN)n3cc(C(N)C(C)CC)nn3)CC2)nc(N2CCN(C(=O)C(CCCN=C(N)N)n3cc(C(N)C(C)CC)nn3)CC2)n1 (configuration not stated) | x | x | 13 | 12 | -3 | x | 9.9
Cc1ccc(C(=O)Nc2cccc(C(=O)O)c2)cc1 | x | 11 | 11 | 10 | 1 | x | 3.6
CCCCc1c(C)nc2ccc(C)cc2c1SCCC(=O)O | -14 | 2 | 12 | -4 | 5 | 1976 | 5.2
CCOc1cccc(/C=C2\NC(=S)N(c3ccccc3)C2=O)c1O | -59 | -9 | x | x | x | 3659 | x
CCOC(=O)c1cccc(NC(=O)c2cncc(Br)c2)c1 | -19 | -2 | 14 | 3 | 12 | 2177 | 3.3
COc1cc2c(cc1OC)C(C(=O)NCCC(C)C)C1CCCCN1C2=O (configuration not stated) | -15 | 2 | 8 | 12 | 11 | 7645 | 1.6
O=C(COC(=O)c1ccccc1NC(=O)c1ccco1)Nc1ccc2c(c1)OCO2 | -12 | 1 | 9 | 15 | -6 | 2396 | 2.8
CC1Oc2ccccc2N(Cc2cccnc2)C1=O (configuration not stated) | 8 | -12 | 6 | 6 | 8 | 22024* | 4.3
O=C(NCC1CC1)c1onc(CSc2ccc(F)c(F)c2)c1C(=O)NCC1CC1 | -8 | 20 | 10 | 10 | 11 | 3451 | 6.9
Cc1[nH]c2ccc(OCc3ccccc3)cc2c1CCN | -24 | -1 | 11 | 12 | -4 | 3877 | -4.8
COc1ccc(CCNC(=O)c2[nH]c(C)c(C(C)=O)c2C)cc1OC | -11 | -2 | x | x | 0 | u | 0.8
CCOCc1c(C(=O)NC2=Nc3ccccc3NC(CC)=C2C(=O)OCC)oc2ccccc12 | -4 | 2 | 0 | 4 | 5 | 4500 | -7.6
COc1cccc(CNc2ccc(S(=O)(=O)N3CCN(C)CC3)cn2)c1 | x | x | 5 | -6 | 3 | x | 3.1
COc1ccc(CCC(=O)Nc2nnc(C(F)(F)F)s2)cc1 | -15 | -5 | -7 | -3 | 1 | 6148 | 3.7
CCOC(=O)C1CCN(CC(=O)c2ccc(O)c(C)c2O)CC1 | 1 | 0 | 1 | -1 | 6 | 4896 | 0.0
